HCMV NEC inh = inhibitors of HCMV UL50-UL53 nuclear egress complex interaction | inhibition, % (test concentration not listed) | actives 0.15% (n = 190,000) | AID 1918969 | HTRF UL50-UL53 interaction, normalized percent inhibition;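 active = both replicates at 50% or more, plus weaker picks with an unusually low signal ratio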;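 note: stock transfer was 100 nL into about 20 µL; 0% = negative control wells and 100% = wells with untagged competitor protein; inactives centre near -12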
Sa growth inh = S. aureus growth inhibition | S. aureus RN4220 growth, OD600, 20 h, 42 °C; stronger effect = lower value | relative growth, % (test concentration not listed) | actives 0.53% (n = 170,000) | AID 720641;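 active = growth at 42 °C up to 50% and 20 or more points under that at 30 °C, or under 10% at both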;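 note: 300 nL library stock went into each well; scaled to the means of positive and negative controls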
GIV-Gai inh = inhibitors of GIV GBA-motif binding to rat Galpha-i3 | Galpha-i3/FITC-GIV peptide fluorescence polarization, 90 min; stronger effect = lower value; scaled: aluminum fluoride 0%, vehicle 100% | actives 0.42% (n = 210,000) | P08753 | AID 1224905 | percent of control (FP), % (concentration not given with the values);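 active = replicate mean at 85% of control or lower, very high polarization wells dropped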;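 note: wells of about 15 µL received 100 nL stock; the first replicate is given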
Target sequence (P08753 whole entry, looked up): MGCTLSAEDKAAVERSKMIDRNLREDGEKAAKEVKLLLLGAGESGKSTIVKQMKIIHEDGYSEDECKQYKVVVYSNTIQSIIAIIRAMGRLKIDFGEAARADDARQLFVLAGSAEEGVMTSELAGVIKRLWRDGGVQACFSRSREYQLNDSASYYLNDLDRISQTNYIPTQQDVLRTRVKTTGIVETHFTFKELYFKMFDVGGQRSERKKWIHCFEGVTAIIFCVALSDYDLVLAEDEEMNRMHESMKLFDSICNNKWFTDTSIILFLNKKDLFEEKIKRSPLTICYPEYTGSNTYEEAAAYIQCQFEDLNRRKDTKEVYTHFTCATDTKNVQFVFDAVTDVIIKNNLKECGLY
Sa growth inh second temp = second read-out of Sa growth inh, no call of its own (marks repeat the call); relative growth, %; measured here: growth at 30 °C;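 optical density after 20 h as mean of two plates; 100% = untreated growth and lower means inhibition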
Active calls of the source: *; nt = no result given; & = joins results of further samples. The order is random; overall some 0.83% were active at least once.

SMILES	HCMV NEC inh	Sa growth inh	Sa growth inh second temp	GIV-Gai inh
CC1(C(=O)NC2CCCCC2)CCC(=O)N1Cc1cccnc1 (stereo not given)	nt	97	95	111
O=C(Nc1ccc(OC(F)(F)F)cc1)c1nc2ccccc2nc1N1CCCCC1	nt	99	103	112
CCOC(=O)C1=C(Cn2ccnc2)NC(=O)NC1c1ccc(Cl)cc1 (stereo not given)	nt	81	74	106
CC(C)NC(=O)C1CCCN(S(=O)(=O)c2cn(C(C)C)cn2)C1 (stereo not given)	-19	nt	nt	107
CCN(CC(=O)N1CCCCC1)S(=O)(=O)c1ccccc1	-22	106	102	105
Cc1ccc(S(=O)(=O)N(Cc2ccccc2)C(C#N)c2ccc3c(c2)OCO3)cc1 (stereo not given)	-31	89	81	106
CCOc1ccc(CNC(=O)C2CCCCN2S(=O)(=O)c2ccc(F)cc2)cc1OC (stereo not given)	nt	76	90	98
COCCSc1nnc(NC(=O)C2CCCO2)s1 (stereo not given)	3	91	78	108
CCOC(=O)c1sc2ncn(CC(=O)Nc3cc(Cl)ccc3C)c(=O)c2c1C	-22	79	91	102
CCOC(=O)c1ccc(NC(=O)C2CC(=O)N(C)C(=Nc3ccc(OC)cc3)S2)cc1 (stereo not given)	-6	nt	nt	101
O=C(O)C1CCC1C(=O)Nc1nc(-c2ccc(Cl)s2)cs1 (stereo not given)	-38	102	111	102
O=C1C=C(NCc2ccc(Cl)cc2)CC(c2ccco2)C1 (stereo not given)	11	92	81	96
c1coc(-c2nnc(C3CCCCC3)o2)c1	-1	89	79	nt
Cc1cc(C)cc(NC(=O)C(OC(=O)C2CCC(=O)N2)c2ccccc2)c1 (stereo not given)	-28	100	93	nt
Cc1ccc(-c2cc(C(F)(F)F)n3nc(C(=O)Nc4ccn(Cc5ccccc5)n4)cc3n2)cc1C	nt	104	80	102
Cc1ccc(N=C2SC3(CC3)C(=O)N2c2ccc(C)cc2)cc1	-3	83	88	99
Cc1cc(C)cc(C(=O)N(CCCN2CCOCC2)CCC(=O)N2CCNCC2)c1	0	nt	nt	94
N#C/C(=C/C=C/c1ccc(-c2cc(Cl)ccc2Cl)o1)C(N)=S	-20	58	64	167
COc1cccc(CC2CC(=O)N(c3ccc4c(C)cc(=O)oc4c3)C2=O)c1 (stereo not given)	nt	100	82	102
COc1ccc(NC(=O)COc2ccc(C)c(C)c2)c(OC)c1	4	111	107	100

The last 4 records of the section before open the next one.
SMILES	HCMV NEC inh	Sa growth inh	Sa growth inh second temp	GIV-Gai inh
Cc1cc(C)cc(C(=O)N(CCCN2CCOCC2)CCC(=O)N2CCNCC2)c1	0	nt	nt	94
N#C/C(=C/C=C/c1ccc(-c2cc(Cl)ccc2Cl)o1)C(N)=S	-20	58	64	167
COc1cccc(CC2CC(=O)N(c3ccc4c(C)cc(=O)oc4c3)C2=O)c1 (stereo not given)	nt	100	82	102
COc1ccc(NC(=O)COc2ccc(C)c(C)c2)c(OC)c1	4	111	107	100
Nc1cnn(C2OC(CO)C(O)C2O)c(=O)n1 (stereo not given)	-11	69	38	102
O=C(O)CN1C(=O)Cc2ccccc2C1=O	103*	79	95	nt
COc1ccc(CNC2CCCCC2)cc1OC	-11	97	110	96
Cc1cc(C)c2c(N)c(C(=O)Nc3nnc(-c4cccs4)s3)sc2n1	-170	111	81	98
CCOC(=O)c1c(C=O)oc2c(C)cc(OC(=O)/C=C/c3ccccc3)c(Br)c12	-12	nt	nt	102
Cc1ccc(CCCC(=O)O)cc1	-17	84	95	nt
CCC(CC)c1nnc(NS(=O)(=O)c2ccc(C)cc2)s1	2	144	85	103
CCOC(=O)N1CCN(C(=O)COc2ccc(S(=O)(=O)NCC(C)C)cc2C)CC1	0	101	103	110
CSc1nnc(-c2ccccc2Cl)o1	-22&5	99	88	102
COc1ccc(SCc2cc3c(F)c(F)c(F)c(F)c3o2)cc1	-18	68	89	103
O=C(/C=C/c1ccc(Br)cc1)NCCCn1ccnc1	-35	114	89	106
CNC(=O)c1ccc(OCc2ccccc2)c(OC)c1	-8	113	107	105
O=C(CC1SC(=NCc2ccccc2)NC1=O)Nc1ccccc1F (stereo not given)	-2	103	93	nt
COc1ccc2c(c1)nc1n2CN(CC2CCCO2)CN1Cc1ccccc1 (stereo not given)	nt	87	93	103
O=C(Nc1ncnc2oc(-c3ccccc3)c(-c3ccccc3)c12)c1ccccc1	nt	69	28	102
CCCCN(CC)c1ncnc2ccc(C)cc12	-13	79	73	101
CNC(=O)C(C)SCc1ccccc1 (stereo not given)	-27	103	79	109
CCc1nnc2c(=S)[nH]c3ccccc3n12	-49	nt	nt	95
COc1ccc(-c2noc(CC(=O)N3CC(C)CC(C)C3)n2)cc1 (stereo not given)	-30	85	90	100
CCOC(=O)Cn1cc(C)c(=O)[nH]c1=O	-10	105	98	105

Random excerpt: 5 compounds from above
SMILES	HCMV NEC inh	Sa growth inh	Sa growth inh second temp	GIV-Gai inh
Cc1cc(C)c2c(N)c(C(=O)Nc3nnc(-c4cccs4)s3)sc2n1	-170	111	81	98
CCOC(=O)N1CCN(C(=O)COc2ccc(S(=O)(=O)NCC(C)C)cc2C)CC1	0	101	103	110
CCc1nnc2c(=S)[nH]c3ccccc3n12	-49	nt	nt	95
O=C(O)CN1C(=O)Cc2ccccc2C1=O	103*	79	95	nt
CNC(=O)c1ccc(OCc2ccccc2)c(OC)c1	-8	113	107	105

Remaining list, next part:
SMILES	HCMV NEC inh	Sa growth inh	Sa growth inh second temp	GIV-Gai inh
CCc1ccc(NC(=O)NCc2nc(-c3ccccc3C)oc2C)cc1	-19	nt	nt	103
O=C1NC2=C(C(=O)OC2)C(c2ccccc2)N1 (stereo not given)	nt	105	96	114
CCCCn1c(=O)c2sccc2n2c(CCC(=O)N3CCN(c4ccccn4)CC3)nnc12	-11	nt	nt	101
Cc1ccc(NC(=O)CSc2nc3nccnc3c(=O)n2Cc2ccc(Cl)cc2)cc1	5	nt	nt	117
Cc1noc(C)c1COc1cccc(C(=O)NC(C)C2CC3CCC2C3)c1 (stereo not given)	-10	82	91	nt
Cn1c(=O)c(=O)[nH]c2cc(-c3noc(/C=C/c4cccc(Cl)c4)n3)ccc21	-10	nt	nt	104
COc1ccc(-n2c(-c3ccco3)nc3c(cnn3-c3ccc(C)c(C)c3)c2=O)cc1Cl	-9	95	87	99
O=S(=O)(Nc1ccccc1N1CCOCC1)c1ccccc1	-24	83	89	101
Cc1ccc(-n2ncc3c(N4CCCCC4)ncnc32)cc1	nt	119	86	104
NS(=O)(=O)c1ccc(CCN=Cc2ccccc2O)cc1	-8	93	91	nt
COc1ccc(Nc2nc3c(S(=O)(=O)c4ccccc4)nnn3c3ccc(Cl)cc23)cc1OC	13	91	103	109
Cc1cccc(C)c1-n1ncc(C(=O)N2CCN(c3ccccn3)CC2)c1C1CCN(C(=O)OC(C)(C)C)CC1	nt	77	83	104
COc1ccc(CN2CCc3nc(N4CCN(c5ccc(F)cc5)CC4)ncc3C2)c(OC)c1OC	nt	104	96	112
N#Cc1nc(-c2ccc(C(F)(F)F)cc2)oc1N	2	111	66	107
CCCc1nnc(NC(=O)C(C)N2C(=O)C3C4C=CC(C4)C3C2=O)s1 (stereo not given)	-6	103	88	102
Cc1cccc(NC(=O)c2ccc3nc(C(C)C)oc3c2)c1C	nt	93	100	103
Cc1ccc(C)c(-c2csc(NC(=O)CCCc3ccccc3)c2C(N)=O)c1	14	101	106	nt
CCOC(=O)C1=C(N)OC2=C(C(=O)CC(c3ccccc3)C2)C1c1ccsc1 (stereo not given)	-14	nt	nt	105
NC(=O)CSc1nc(-c2ccccc2)nc2c1CCCC2	-4	93	89	99
COc1ccccc1N(CC(O)Cn1ccnc1C)S(=O)(=O)c1ccc(C)cc1 (stereo not given)	6	103	82	102
CC(Oc1ccc(C(C)(C)C)cc1)C(=O)N1CCN(Cc2ccc3c(c2)OCO3)CC1 (stereo not given)	24	98	93	108
CCN1CCN(C(=O)c2ccc(C#N)cc2)CC1	-9	97	87	nt
Brc1ccccc1C=Nc1cccc2cnccc12	-13	76	73	nt
CCOc1ccc(-n2cnnn2)cc1S(=O)(=O)NCc1ccccc1	-18	84	70	95
CC1CCCN(c2cc3c(cc2F)c(=O)c(S(=O)(=O)c2cccc(Cl)c2)cn3C)C1 (stereo not given)	nt	114	95	110
Cc1cccc(-c2nc3ccccc3c(=O)n2OC(=O)c2ccc(C)c(C)c2)c1	nt	99	88	103
CCC(Oc1ccc2c(c1)C(=O)CC(C)(C)O2)C(=O)NCCN1CCCCCC1 (stereo not given)	-2	92	78	106
COc1cccc(C(c2sc3ncnn3c2O)N2CCC(C)CC2)c1 (stereo not given)	-9	110	92	101
Cc1cc(Oc2nc3ccccn3c(=O)c2/C=C(\C#N)c2nc3ccccc3s2)ccc1Cl	-48	72	91	151
Cc1noc(-c2cc(S(=O)(=O)N3CCC(C)CC3)c(C)s2)c1C	-14	nt	nt	100
O=C(CC(C(=O)c1ccccc1)c1cccs1)c1ccc(Cl)cc1 (stereo not given)	-24	104	86	99
Cc1csc(NC(=O)CCN2C(=O)/C(=C/c3ccc4c(c3)OCO4)SC2=S)n1	-28	nt	nt	98
O=C(O)CC1=C(c2ccc(Cl)cc2)CCC1=O	-25	95	98	nt
CCCc1cc(=O)n2[nH]c(CNc3ccc(F)cc3)nc2n1	-33	nt	nt	108
CC1Cc2ccccc2N1C(=O)CSc1nc2ccccc2[nH]1 (stereo not given)	-39	114	86	nt
Cc1ccc(CCNC(=O)c2coc3nc4ccccc4nc23)cc1	nt	89	82	120
CC(C)COc1ccc(N)cc1OCC(C)C	1	87	98	nt
CN(CC(=O)NC1CCCC1)S(=O)(=O)c1ccc2c(c1)c(=O)n(C)c(=O)n2C	-32	94	86	101&99
CCOc1ccc2nc(N3CCC(C(=O)Nc4ccc(Br)cc4F)CC3)sc2c1	-27	101	90	104
CCC1Cn2c(C(=O)NCCc3c[nH]c4ccccc34)cc3c(Cl)ccc(c32)O1 (stereo not given)	-17	nt	nt	104
CCS(=O)(=O)c1ccc2oc(=O)c(/C=C(\O)c3oc(C)nc3C)nc2c1	nt	104	94	113
CCOC(=O)c1c(C)[nH]c(C)c1S(=O)(=O)NCC(=O)NC(C)CC (stereo not given)	-22	nt	nt	104
CCC(C(=O)NCCc1ccccc1)n1nc(C)c2sc3ccccc3c2c1=O (stereo not given)	-13	100	92	103
O=C1NCCCC1C(=O)Nc1ccncc1 (stereo not given)	8	95	89	106
O=C(Nc1ccc(F)cc1F)c1cc(-c2ccc3c(c2)OCO3)on1	-13	102	92	102
COc1cc(-c2cc(C(=O)NCCCO)c3ccccc3n2)cc(OC)c1OC	-37	97	98	nt
COCCN(Cc1nc2ccccc2c(=O)[nH]1)C(=O)C1CCCN1C(=O)c1cccs1 (stereo not given)	-1	86	94	nt
COc1ccc(Cn2c(C)cc(O)cc2=O)cc1OC	nt	117	89	100
CCOC(=O)c1sc2ccccc2c1S(=O)(=O)N1CCN(c2cc(C)ccc2C)CC1	nt	84	74	98
CCN(CC)C(=O)Cc1c(C(=O)O)[nH]c2ccccc12	nt	93	90	102
N#CCOC(=O)/C=C/c1cn(Cc2ccccc2)nc1-c1cccs1	-10	114	85	nt
COc1cc(OC)cc(C(=O)NC(C)c2ccccc2)c1 (stereo not given)	5	85	89	nt
CCN(CC)CCOC(=O)c1ccc(NC(=O)CN2C(=O)/C(=C\c3ccc(OC)cc3)SC2=S)cc1	-26	nt	nt	109
O=S(=O)(Nc1cccnc1)c1ccc2[nH]c3c(c2c1)CCCCC3	-3&-4	100	96	102&106
Cc1ccc(CCNC(=O)Cn2c(-c3cccs3)cc3ccccc32)cc1	nt	100	105	101
Clc1ccc(-c2csc3ncnc(N4CCCCC4)c23)cc1	-19	nt	nt	102
